# TRPML1 inh = inhibitors of human TRPML1 channel | 390,000 compounds, 0.02% hits | TRPML1-inducible cells, Ca2+ dye fluorescence, FDSS; stronger effect = lower value; inhibition of EC80 agonist-evoked calcium signal | AID 624415 | activity change, negative = inhibition, % (no concentration beside the values) | Q9GZU1; in the data active means activity change below about -50%; inconclusive means about -30% to -50%; inactive means above about -30%;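 further: stimulus is agonist 54-4 at its EC80 concentration; on the % scale 0 is the no-effect control and ±100 the full control effect; compound concentration not given in the record; the text of the record puts the active cut at -80%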
#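 TRPML1-DL cells, Tet-induced overnight (~16 h, 37 °C) at 1,500 cells/well, were loaded with Ca8 no-wash dye plus quencher for 45-90 min at room temperature. Compounds were pinned during FDSS kinetic reading; agonist 54-4 at EC80 (4 uM final) then added.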
# D2 agonist = human D2 receptor agonism in beta-arrestin assay | DiscoveRx PathHunter D2 beta-arrestin, luminescence, 90 min; 100% = 57 uM dopamine signal | activation, % (concentration not given with the values) | 360,000 compounds, 0.084% hits | AID 624465; in the data active = activation above about 40%; inconclusive = about 15% to 40%; inactive = below about 15%; further: the text of the record calls up to 30% inactive
#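 Agonist mode: compounds alone added to overnight-plated D2 PathHunter cells for 90 min at 37 C, with 57 uM final dopamine (EC100) defining full response. Beta-arrestin recruitment detected by chemiluminescent reagent, read after 1 h at ambient temperature.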
# PINK1 expr mod = modulators of PINK1 expression; 410,000 compounds, 0.2% hits; PINK1 immunofluorescence, high-content cytometry, 24 h; Potency, µM (doses to about 76.6 µM), for inactives: at the top dose activation (PINK1 increase), hits mostly activators; active = well fitted activation curve with a large enough effect; inconclusive = small, poorly fitted or top-dose-only effect; inactive = flat fitted curve, though single readings scatter; cell line not stated here;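 further: potency means the concentration at half of the fitted maximal effect; % of control where 0% means no effect; nearly all actives have a fitted effect of over 65% in size; a mitochondrial uncoupler was the plate control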
#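 Stable cell line, 250 cells/well, 12 h attachment; compounds pinned at 5 concentrations, 24 h; CCCP control. Fixed with nuclear dye, primary antibodies 12 h at 10 degrees C, secondary plus cell stain; laser-scanning cytometer read.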
# D2 PAM = potentiates the human D2 dopamine receptor allosterically. potentiation, % (test concentration not listed). 360,000 compounds, 0.23% hits. DiscoveRx D2 beta-arrestin cells, luminescence, 90 min; 100% = 57 uM dopamine signal. AID 624464; active = potentiation of 50% or more; inconclusive = 30% to 50%; inactive = 30% or less;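 further: compound concentration not given in the record; tested on top of an EC20 dose of dopamine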
#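 PathHunter D2 cells, attached overnight at 37 deg C, received compound in DMSO plus dopamine at EC20 (50 nM final) for 90 min at 37 deg C. Beta-arrestin recruitment was read as luminescence after 1 h with detection reagent at ambient temperature.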
# TRPML1 agonist = agonists of human TRPML1 channel; Q9GZU1; TRPML1-expressing cells, Ca2+ dye fluorescence, FDSS; host cell line not named in the record; reference of the full effect not given here; activation, % (concentration not given with the values); 410,000 compounds, 0.12% hits; AID 624414; in the data active = activation above about 50%; inconclusive = about 30% to 50%; inactive = below about 30%; further: 0% is about no effect; the text of the record puts the active cut at 80%
#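 Tetracycline-induced TRPML1-DL cells are seeded and incubated overnight before loading with a no-wash Ca2+ dye and quencher. Agonist activity is taken from the 110 s fluorescence read following compound pin-transfer on an FDSS, before EC80 54-4 challenge.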
# Six1-Eya2 blk = blocks human Six1 binding to Eya2. AlphaScreen GST-Six1/His-Eya2 binding, biochemical; stronger effect = lower value; control for the full effect not named in the record. activity change, % (concentration not given with the values). 360,000 compounds, 0.56% hits. AID 651725; in the data active = activity change below about -65%; inconclusive = about -30% to -65%; inactive = above about -30%; further: on the % scale 0 is the no-effect control and ±100 the full control effect
# Target sequence (O00167 whole entry, looked up): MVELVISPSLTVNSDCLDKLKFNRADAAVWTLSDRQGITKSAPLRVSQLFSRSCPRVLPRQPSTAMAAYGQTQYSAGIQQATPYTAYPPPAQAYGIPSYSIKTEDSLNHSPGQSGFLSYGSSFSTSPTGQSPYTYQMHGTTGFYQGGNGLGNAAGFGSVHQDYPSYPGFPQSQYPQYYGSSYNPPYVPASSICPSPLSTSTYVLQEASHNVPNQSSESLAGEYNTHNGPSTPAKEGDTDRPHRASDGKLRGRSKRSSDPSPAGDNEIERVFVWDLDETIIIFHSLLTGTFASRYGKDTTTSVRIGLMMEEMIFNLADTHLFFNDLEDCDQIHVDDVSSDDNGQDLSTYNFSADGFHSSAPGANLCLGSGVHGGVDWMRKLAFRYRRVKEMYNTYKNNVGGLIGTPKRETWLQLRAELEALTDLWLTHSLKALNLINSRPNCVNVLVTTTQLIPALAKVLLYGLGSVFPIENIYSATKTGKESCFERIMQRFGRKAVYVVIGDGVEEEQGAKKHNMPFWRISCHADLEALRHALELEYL
# Target sequence (Q15475 whole entry, looked up): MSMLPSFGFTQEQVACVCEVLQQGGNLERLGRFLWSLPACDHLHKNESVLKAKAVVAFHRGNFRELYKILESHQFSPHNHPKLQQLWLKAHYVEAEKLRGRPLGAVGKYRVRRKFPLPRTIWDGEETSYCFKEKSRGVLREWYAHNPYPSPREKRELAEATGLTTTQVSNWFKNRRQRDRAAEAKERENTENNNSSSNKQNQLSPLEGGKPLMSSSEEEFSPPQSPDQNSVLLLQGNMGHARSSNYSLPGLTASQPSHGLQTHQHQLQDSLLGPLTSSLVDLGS
#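 AlphaScreen luminescence read after one hour at 37 °C in darkness. Pin-transferred compounds met GST-Six1 and His-Eya2 protein (5X stock 250 nM/500 nM) plus glutathione donor and Ni-chelate acceptor beads (5X, 50 ug/mL).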
# * = called active by the depositor; ? = inconclusive; / = no result given; [ ] = remark or other dose. The order is random; overall some 1% were active at least once.
SMILES,TRPML1 inh,D2 agonist,PINK1 expr mod,D2 PAM,TRPML1 agonist,Six1-Eya2 blk
COc1ccc(NC(=O)c2ccccn2)cc1,1,-2.4,5.9%,24,0.0,-16
Cc1ccc(-n2nc3c(c2NC(=O)C(C)(C)C)CS(=O)(=O)C3)cc1,-5,0.8,2.0%,-5,0.3,6
CC(C)(C)c1cc(C(=O)NCc2cc(F)cc3c2OCOC3)n(Cc2ccccc2)n1,2,4.2,2.0%,4,3.4,6
CN(C)CCOC1c2ccccc2-c2ccccc21,9,-0.8,-1.5%,-10,-1.0,2
CCOc1ccc(C2=CC(c3cccc(Br)c3)n3c(nc4ccccc43)N2)cc1Cl (configuration not stated),-6,/,8.3%,/,0.1,/
COc1cccc(/C=C2/NC(=O)NC2=O)c1OCC(=O)Nc1ccccc1,6,-0.1,6.1%,-1,-0.6,1
CCOc1ccc(N(CC)C(=O)c2cn(CC)c(=O)c3cc(OC)c(OC)cc23)cc1,/,-4.5,0.0%,-8,/,0
COc1ccc(CNCc2cc3c(cc2[N+](=O)[O-])OCO3)cc1,1,0.1,-0.2%,-10,-0.4,-3
CN(CCNC(=O)CN1CCN(Cc2ccccc2Cl)C1=O)Cc1ccccc1,9,-5.1,4.3%,-16,-0.6,-11
Cn1ccnc1Sc1cc(NCCCO)c([N+](=O)[O-])c2nonc12,-7,-9.3,-2.3%,-26,0.6,?
Cc1ccc(NS(=O)(=O)c2c(C(=O)N3CCC(C)CC3)c(C)n(C)c2C)cc1Cl,-1,/,0.7%,/,2.5,/
Cn1nnnc1SCCNCc1ccccc1Cl,29,/,1.2%,/,-0.3,/
CCOc1ccccc1NC(=O)COc1cccc2c(=O)n(CCOC)ccc12,-14,/,0.5%,/,-1.0,/
CCCCCC(=O)N1C[C@@H](O)[C@H](n2cc(-c3ccc(F)cc3)nn2)C[C@@H]1c1ccccc1,1,-1.4,1.6%,-2,1.1,0
O=S(=O)(c1ccc(OCc2nc3ccccc3s2)c(Cl)c1)N1CCOCC1,24,-3.9,8.1%,-5,-0.8,-2
CC(Sc1nnc(-c2ccccc2F)n1C)C(=O)NC1CCCCC1 (configuration not stated),-4,0.3,0.3%,-2,2.5,2
C[C@@H]1CN([C@H](C)CO)C(=O)CCCn2cc(nn2)CO[C@H]1CN(C)C(=O)C1CC1,1,-5.6,0.7%,3,-0.5,-3
CCCCN1CCC(CN2C(=O)C(=O)NC[C@@H]2Cc2ccccc2)CC1,9,1.4,0.7%,-6,-0.4,-7
CC1CCN(CCC(=O)Nc2ccc(Br)cc2)CC1,-2,1.4,/,-15,4.0,8
CCOc1ccc(-c2cc(C(=O)N3CCN(S(=O)(=O)c4cc(Cl)ccc4OC)CC3)[nH]n2)cc1,5,/,-2.1%,/,2.3,/
COc1cccc(/C=C2\Sc3ccc(C(=O)NCc4cccnc4)cc3N(C)C2=O)c1,20,2.4,2.2%,-13,1.7,-14
O=C(NC(=S)Nc1ccc2[nH]c(=O)[nH]c2c1)c1ccccc1Cl,46,1.0,4.9%,-8,0.2,0
Cc1cccc(NC(=S)N2CCC(NC(=O)c3cccc(F)c3)CC2)c1,-9,-2.4,0.4%,0,0.8,12
COc1ccc(CC(=O)NCc2nnc(SCC(=O)Nc3ncc(C)s3)n2C)cc1,-8,0.3,-1.2%,-9,0.5,-1
CCC(NC(=O)c1ccccc1NC(=O)C(C)(C)C)C(=O)N1CC(C)OC(C)C1 (configuration not stated),-18,-4.4,1.5%,-6,-0.3,9
SMILES,TRPML1 inh,D2 agonist,PINK1 expr mod,D2 PAM,TRPML1 agonist,Six1-Eya2 blk
Cc1ccc(S(=O)(=O)c2cn(Cc3ccccc3Cl)c3ccc(F)cc3c2=O)cc1,2,/,7.7%,/,-0.1,/
CCOc1ccc(C(=O)c2cn(Cc3ccc(F)cc3)c3ccc(F)cc3c2=O)cc1,35,/,-0.6%,/,3.2,/
O=C1NCCN(Cc2ccoc2)C1CC(=O)N(Cc1ccccc1)CC1CCC1 (configuration not stated),-9,-1.9,0.0%,-6,-0.4,-3
CC(=O)Nc1ccc(NC(=O)C/C(C)=N/NC(=O)COc2cc(C)c(Br)cc2Br)cc1,-18,2.4,10%,-12,1.5,-18
COc1cc(NC(=O)CCCNC(=O)c2ccc(Cl)cc2)cc(OC)c1OC,6,0.0,0.8%,-9,0.0,14
CC(C)N(C(=O)[C@H]1C[C@H](CC(=O)NCC23CC4CC(CC(C4)C2)C3)C(=O)N2CCc3c([nH]c4cc(-c5ccco5)ccc34)[C@]12C)C(C)C,14,0.3,5.6%,/,-0.8,1
COc1ccc(S(=O)(=O)N2CCN(Cc3ccc4c(c3)OCO4)CC2)cc1F,-8,-6.3,1.1%,-6,-0.1,17
COC(=O)CSc1nnc(-c2ccco2)o1,70,-0.8,7.5%[38.3 µM],2,1.0,-12
COc1ccc(N2C(c3cc(OC)cc(OC)c3)=Cc3ccccc3C2CC(C)=O)cc1 (configuration not stated),/,/,1.8%,/,-0.1,26
CC1=C(C(=O)Nc2ccc(C)cc2C)C(c2ccc(C(=O)O)cc2)n2nc(SCc3ccccc3)nc2N1 (configuration not stated),-26,/,-1.9%,/,0.9,/
CC[C@]12c3[nH]c4ccccc4c3CCN1C(=O)C(CC(=O)NC(C)(C)C)C[C@@H]2C(=O)N1CCN(C(=O)C2CC2)CC1 (some centres not stated),-9,-2.3,-0.4%,/,-0.4,1
CC1CCN(C(=O)c2[nH]cnc2C(=O)NCCCCCNC(=O)OC(C)(C)C)CC1,1,1.9,0.3%,-13,-0.6,7
O=C(COC(=O)c1ccc(O)cc1)NCC1CCCO1 (configuration not stated),-4,1.4,1.0%,-10,1.2,10
CCOc1ccc(CNC(=O)c2[nH]c3ccccc3c2Sc2ccc(C)cc2)cc1,-16,/,-0.5%,/,-0.3,/
Cc1ccc(NC(=O)CCC(=O)N/N=C/c2cc([N+](=O)[O-])ccc2O)cc1,13,-1.0,-1.2%,-17,1.6,-87*
CCc1nn2c(=O)cc(CSCC(=O)Nc3ccccc3Cl)nc2s1,0,0.6,-0.3%,-3,0.2,4
O=C(O)c1c(Cl)c(Cl)c(Cl)c(Cl)c1C(=O)OCC1CCCO1 (configuration not stated),0,-4.2,1.6%,1,-0.2,-1
C=C(C)CN1C(=O)c2ccccc2C1=O,21,2.0,7.1%[38.3 µM],-6,0.1,4
O=C(C[n+]1cccc(CNC(=O)c2ccc(OC(F)F)cc2)c1)c1ccccc1,-28,-2.8,-2.3%,-21,0.6,0
CNc1nc(OC)nc(N(C#N)CN2C(=O)c3ccccc3S2(=O)=O)n1,15,-0.3,0.6%,-7,0.8,-6
CN(CCCNC(=O)CCCOc1cc(=O)n(C)c2ccccc12)Cc1ccccc1,-11,-4.7,1.7%,-19,0.6,-5
Cc1ccc(C(C)C)c(OCc2nc(-c3nonc3N)no2)c1,28,0.9,7.6%,-6,2.6,12
COc1ccc(CCNc2nc(C)cc(C)n2)cc1OC,-4,1.1,0.3%,1,-0.6,0
O=C(Cc1ccccc1)Nc1ccc(C(=O)Nc2ccccc2C(=O)O)cc1,-9,3.5,-0.2%,-6,0.0,?
Cc1ccc(OCCOCCN(C)C)c(Cl)c1,3,-2.9,-2.8%,-26,-0.4,6
SMILES,TRPML1 inh,D2 agonist,PINK1 expr mod,D2 PAM,TRPML1 agonist,Six1-Eya2 blk
CC(=O)OC(C(=O)NCc1ccco1)c1cccnc1 (configuration not stated),35,0.9,0.9%,13,-0.6,1
COc1ccc2[nH]c(=O)c(CN(CCN3CCCC3)C(=O)Nc3ccccc3Cl)cc2c1,29,-2.0,0.1%,-2,-0.4,0
CC(=O)n1nc(-c2ccc(Cl)cc2)nc1NCc1ccco1,16,0.7,8.3%[38.3 µM],3,4.2,0
CCOC(=O)COc1ccc(Br)cc1/C=C\c1[nH]c(=O)[nH]c(=O)c1[N+](=O)[O-],17,-3.3,-3.0%,-28,0.2,-28
CC(=O)N/C(=C/C(C)C)c1ccccc1,-1,-1.4,0.7%,-2,0.1,11
CCOC(=O)C1(CCCc2ccccc2)CCN(C(=O)c2cc(C)nc(C)n2)CC1,8,-0.3,0.4%,0,0.1,1
O=C1NC2(CCCC2)N=C1c1ccc(F)cc1,24,-1.9,-3.7%,-10,-0.4,4
Nc1c(C(=O)N/N=C/c2ccccc2Cl)oc2nc(-c3ccccc3)cc(-c3ccco3)c12,0,7.2,9.4%,-4,2.1,-2
CSC(=S)N/N=C(\C)c1ccccc1,6,-3.3,0.7%,-7,0.2,-13
CCOC(=O)CSc1nc2nc(C)cc(C)n2n1,-4,2.4,0.8%,-3,0.8,2
CCc1nn(CC(=O)NCCc2ccc(Cl)cc2)c(=O)c2cc3c(OC)cccc3n12,-10,/,0.6%,/,-0.9,/
COc1ccc(-c2nc(CN3CCCCC3c3nccn3C)c(C)o2)c(C)c1C (configuration not stated),35,1.7,14%,-11,1.2,-8
COc1ccc(NC(=O)c2ccc(Br)c(S(=O)(=O)N3CCOCC3)c2)cc1,-6,-1.8,1.5%,2,-1.4,-13
Cc1ccc(CNC(=O)C2(C)CCN2C(=O)Cc2ccc(-c3ccccc3)cc2)cc1 (configuration not stated),/,3.0,16%,-6,2.4,0
CCc1cccc(CC)c1NS(=O)(=O)c1ccc2c(c1)CCN2C(=O)C1CC1,5,/,-0.2%,/,-0.4,/
CCOc1ccc(S(=O)(=O)c2cn(Cc3ccccc3C)c3ccc(OC)cc3c2=O)cc1,-16,/,-0.7%,/,1.1,/
COc1ccc(NC(=O)CCCn2cnc3ccccc3c2=O)c(OC)c1,1,2.8,0.8%,-15,0.7,-1

# Sorted by SMILES length (low to high): part of the list above
SMILES,TRPML1 inh,D2 agonist,PINK1 expr mod,D2 PAM,TRPML1 agonist,Six1-Eya2 blk
CCOC(=O)CSc1nc2nc(C)cc(C)n2n1,-4,2.4,0.8%,-3,0.8,2
COc1ccc(NC(=O)c2ccc(Br)c(S(=O)(=O)N3CCOCC3)c2)cc1,-6,-1.8,1.5%,2,-1.4,-13
COc1ccc2[nH]c(=O)c(CN(CCN3CCCC3)C(=O)Nc3ccccc3Cl)cc2c1,29,-2.0,0.1%,-2,-0.4,0

# Part of the list above, with tabs.
Compound	TRPML1 inh	D2 agonist	PINK1 expr mod	D2 PAM	TRPML1 agonist	Six1-Eya2 blk
O=C1NC2(CCCC2)N=C1c1ccc(F)cc1	24	-1.9	-3.7%	-10	-0.4	4
Nc1c(C(=O)N/N=C/c2ccccc2Cl)oc2nc(-c3ccccc3)cc(-c3ccco3)c12	0	7.2	9.4%	-4	2.1	-2
CSC(=S)N/N=C(\C)c1ccccc1	6	-3.3	0.7%	-7	0.2	-13
CCOC(=O)CSc1nc2nc(C)cc(C)n2n1	-4	2.4	0.8%	-3	0.8	2

# Assay outcomes deposited in PubChem BioAssay by National Center for Advancing Translational Sciences (NCATS).
